Bioassay records as filed in PubChem BioAssay.
KCNQ2 block – KCNQ2 channel blockers in CHO-K1 cells – cell-based, FluxOR thallium flux, B-score, primary screen (AID 2156); O88943; 20 min; active compounds read low; only compounds with negative scores are shown here; some inactives read as strong as hits; B-score at 10 µM; actives 1.1% (n = 310,000);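 active = fluorescence ratio B-score at most minus 3 library SDs, with starting brightness B-score within 2 library SDs, cut at about -5.5 in these data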
Target sequence (O88943 whole entry, looked up): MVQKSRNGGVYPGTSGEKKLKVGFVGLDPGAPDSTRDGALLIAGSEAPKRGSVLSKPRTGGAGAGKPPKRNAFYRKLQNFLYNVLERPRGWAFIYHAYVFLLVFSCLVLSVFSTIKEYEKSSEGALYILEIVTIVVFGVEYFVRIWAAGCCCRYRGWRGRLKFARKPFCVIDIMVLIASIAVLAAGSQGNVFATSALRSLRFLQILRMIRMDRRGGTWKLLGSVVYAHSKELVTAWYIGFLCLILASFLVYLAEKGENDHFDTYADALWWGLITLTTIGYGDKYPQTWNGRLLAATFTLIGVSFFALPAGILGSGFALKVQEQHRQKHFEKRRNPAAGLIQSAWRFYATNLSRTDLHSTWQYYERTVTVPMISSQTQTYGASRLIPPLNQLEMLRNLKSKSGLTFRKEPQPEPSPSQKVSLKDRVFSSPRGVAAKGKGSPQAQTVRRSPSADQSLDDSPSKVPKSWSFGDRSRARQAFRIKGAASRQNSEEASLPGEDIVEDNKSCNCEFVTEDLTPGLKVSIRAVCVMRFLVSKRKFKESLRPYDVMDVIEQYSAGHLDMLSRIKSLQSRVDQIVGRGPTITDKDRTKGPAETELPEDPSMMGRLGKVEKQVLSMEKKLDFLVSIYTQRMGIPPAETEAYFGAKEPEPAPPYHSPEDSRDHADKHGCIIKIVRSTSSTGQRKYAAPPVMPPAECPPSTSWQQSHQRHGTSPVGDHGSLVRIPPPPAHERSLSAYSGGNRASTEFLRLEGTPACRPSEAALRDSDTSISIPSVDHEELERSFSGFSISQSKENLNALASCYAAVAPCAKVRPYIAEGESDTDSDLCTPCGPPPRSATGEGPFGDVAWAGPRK
KCNQ2 block baseline – recorded beside KCNQ2 block, whose call it bears; B-score; measured here: initial fluorescence intensity artifact check;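 brightness before thallium and not channel activity; 0 = typical well and far values either way flag optical interference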
Active calls of the source: *; i = inactive. This is a subset. The share of hits here may be higher or lower than overall.

SMILES | KCNQ2 block | KCNQ2 block baseline
O=C(Nc1ccc2oc(-c3cccc(F)c3)nc2c1)c1ccccc1F | i | 0.11
COc1ccc(NC(=O)C2CCN(S(=O)(=O)c3ccc4[nH]c(=O)oc4c3)CC2)c(OC)c1 | i | 2.2
O=C(O)c1oc2ccc(Br)cc2c1-n1cccc1 | i | -0.08
O=C(Nc1nc2c(s1)CCCC2)C1COc2ccccc2O1 (configuration not stated) | i | -0.75
CC(C)NC(=O)CNc1ccc(C(F)(F)F)cc1[N+](=O)[O-] | i | -0.11
O=C(O)CC(CC(=O)Nc1ccc(N2CCOCC2)cc1)c1ccccc1 (configuration not stated) | i | -1.4
COC(=O)c1sc2ncn(CC(=O)NCCc3ccc(OC)c(OC)c3)c(=O)c2c1C | i | 1.8
O=S(=O)(Nc1nc2ccccc2nc1Cl)c1ccccc1C(F)(F)F | i | 0.53
Cc1sc2nc(SCC(N)=O)n(-c3ccccc3)c(=O)c2c1C | i | -0.19
COc1ccc(-n2cnnc2SCC(=O)Nc2cccc(S(N)(=O)=O)c2)cc1 | i | -0.36
O=C(O)C1CC=CCC1C(=O)Nc1cccc(C(=O)N2CCCCC2)c1 (configuration not stated) | i | 0.42
CCOC(=O)C(NC(=O)N(C)C)(Nc1sc(C)c(CC)c1C#N)C(F)(F)F (configuration not stated) | i | -4.2
CCOC(=O)c1ccc(NC(=O)CCC(=O)NCc2ccco2)cc1 | i | 0.65
CC1=NNC(=O)C1CCC(=O)N/N=C\c1cccc(Cl)c1 (configuration not stated) | i | -2.4
COc1cc2c(cc1OC)C(C)N(C(=O)CCNC(=O)c1ccccc1)CC2 (configuration not stated) | i | -0.02
c1ccc(C2c3c(ccc4ccccc34)Oc3ncn4nc(-c5ccco5)nc4c32)cc1 (configuration not stated) | i | 1.2
CCn1nc(C(=O)N[C@@H](CCSC)c2nc3ccccc3[nH]2)c2ccccc2c1=O | i | -0.13
COc1ccc(C(c2nnnn2C2CCCCC2)N2CCN(c3ccccc3F)CC2)cc1 (configuration not stated) | i | -1.2
CCCCC(=O)NC(Nc1ccc(C)cn1)(C(=O)OCC)C(F)(F)F (configuration not stated) | i | -0.03
Cc1ccc(CN(C(=O)c2cc3ccccc3oc2=O)C2CCS(=O)(=O)C2)cc1 (configuration not stated) | i | -0.09
COc1ccc(Cl)cc1NC(=S)NN1CCOCC1 | i | 1.1
Cc1ccc(NC(=O)CN2CCc3ccccc3C2)cc1S(=O)(=O)N1CCOCC1 | i | 0.32
COc1ccccc1C(=O)NC(=S)Nc1cc(C(=O)O)ccc1C | i | 1
Cc1cc(=O)oc(C)c1C(=O)NNC(=O)C1(C)CC1Br (configuration not stated) | i | -0.44
COc1ccccc1NC(=S)NNC(=O)c1nn(C)c(C)c1Cl | i | 0.43
CCOC(=O)C1CCCN(C(=O)/C=C/c2ccc([N+](=O)[O-])cc2)C1 (configuration not stated) | i | -1.1
COc1ccccc1/C=N/NC(=O)c1nnn(-c2nonc2N)c1-c1cccs1 | i | -0.05
Cc1ccc(-c2nn(-c3ccccc3)cc2/C=N/NC(=O)CSc2nnc(C)n2-c2ccccc2)cc1 | i | 1.3
O=C(Cn1nnc(-c2ccccc2F)n1)Nc1ccc(C(=O)N2CCOCC2)cc1 | i | -2
COc1ccc(N(C(=O)c2ccco2)C(C(=O)NC2CCCC2)c2ccc(OC)c(OC)c2)cc1 (configuration not stated) | i | -0.04
Cc1ccc(Nc2nc(Nc3ccc(C)cc3)nc(SC3=NCCS3)n2)cc1 | i | -0.25
COc1ccc(OC)c(-c2csc(NC(=O)Cc3ccccc3)n2)c1 | i | 1.3
CC(C)CNC(=O)[C@H](Cc1ccccc1)NC(=O)c1cccs1 | i | 2.8
O=C(CCc1nnc2ccc(NCc3ccco3)nn12)Nc1ccccn1 | i | 0.06
COc1ccc(OCC(=O)Nc2cccc3cccnc23)cc1 | i | -0.83
COc1ccccc1C(=O)NC(=O)COC(=O)C1(C)CC1(Cl)Cl (configuration not stated) | i | -0.75
CN(c1ccccc1)S(=O)(=O)c1ccc(C(=O)OCC(=O)NCc2cccs2)cc1 | i | 1.2
CC1CN(S(=O)(=O)c2cccc(C(=O)Nc3ccccc3N3CCCC3)c2)CC(C)O1 (configuration not stated) | i | 1.6
Cc1cc(C)c(C)c(OCC(O)CN2CCN(c3ccccn3)CC2)c1 (configuration not stated) | i | 0.38
CN(CCc1ccccc1)C(=O)c1cc(COc2cccc(C(F)(F)F)c2)on1 | -5.5* | 2.6*
O=C(CC1SC(N2CCCC2)=NC1=O)Nc1ccc(C(=O)NCCc2ccc(F)cc2)cc1 (configuration not stated) | i | -1.7
COc1cc(C)ccc1OCc1cc(C(=O)N(C)CCCN2CCOCC2)no1 | i | 1.3
COc1ccccc1-n1c(SCC(=O)N2CCc3ccccc32)nc2c(c1=O)SCC2 | i | 1.4
CC(=O)C1=C(C)NC(C)=C(C(C)=O)C1c1cn(-c2ccccc2)nc1-c1cccs1 | i | -0.21
CC(=O)Nc1ccc(S(=O)(=O)NCCc2csc(C)n2)cc1 | i | 0.08
C=CCSc1nnc2c(n1)[nH]c1c(C)cccc12 | i | 0.9
O=C(CCCn1c(SCC(=O)NCCc2ccccc2)nc2ccccc2c1=O)NCC1CCCO1 (configuration not stated) | i | -1.6
O=C(/C=C(\O)c1ccccc1)C(=O)NNC(=O)c1ccccc1[N+](=O)[O-] | i | 0.11
Cc1cc(C)nc(N(C#N)Cc2cccc3ccccc23)n1 | i | 0.61
CCOC(=O)c1cn2nc(-c3ccc(OCC)cc3)cc2nc1C1CCN(C(=O)OC(C)(C)C)CC1 | i | -0.64
COc1cc(C(=O)OCC(=O)Nc2cc(-c3cc(C)c(C)cc3C)nn2-c2ccccc2)cc(OC)c1OC | i | -1.3
CN(CC(=O)Nc1ccccc1Cl)C(=O)c1cc(-c2cccs2)nn1-c1ccccc1 | i | -0.3
Cc1ccc(C(=O)CSc2nc3ccccc3c(=O)[nH]2)cc1 | i | 1.4
CC(C)(C)C(=O)NC(=S)Nc1sc2c(c1C(N)=O)CCC2 | i | -0.3
Cc1ccc(C(=O)NC2CCN(C(=O)NCc3ccccc3)CC2)cc1 | i | -0.08
O=C(N/N=C/c1ccc[nH]1)c1ccccc1O | i | -0.13
O=C(COc1ccc(Nc2ccccc2)cc1)Nc1ccncc1 | i | 0.31
CCOc1ncccc1C(=O)OCC(=O)c1ccc[nH]1 | i | 1.1
COc1cccc(-c2ccc(-c3noc(-c4cccs4)n3)c(OC)n2)c1 | i | 0.06
CCC(C)N(C(=O)COC(=O)c1[nH]c(C)c(C(C)=O)c1C)C1CCS(=O)(=O)C1 (configuration not stated) | i | 0.68
Next compounds follow:
SMILES | KCNQ2 block | KCNQ2 block baseline
O=C(OCc1nnc(-c2ccccc2)o1)C1CC(=O)N(c2ccccc2)C1 (configuration not stated) | i | 1.2
CCCn1nnc(NC(=S)NC(=O)Cc2ccccc2)n1 | i | 0.93
CN(C)S(=O)(=O)c1cccc(-c2nnc(SCc3cc(Cl)cc4c3OCOC4)n2N)c1 | i | -1.3
CCN(CC)CCNC(=O)Cn1cnc2sc(C)c(S(=O)(=O)N3CCN(c4ncccn4)CC3)c2c1=O | i | -0.41
CCCN(CCC)CCCNC(=O)CS(=O)Cc1nc(-c2ccc(OC)c(OC)c2)oc1C (configuration not stated) | i | 0.66
C[n+]1ccc(/C=C/c2c[nH]c3ccc(F)cc23)cc1 | i | 19
N=c1c(C(=O)NCc2ccco2)cc2c(=O)n3ccccc3nc2n1Cc1ccc(Cl)cc1 | i | -1.5
COc1ccc(N2CCN(C(CNC(=O)C(=O)NCCCn3ccnc3)c3ccco3)CC2)cc1 (configuration not stated) | i | -0.12
CCOC(=O)c1cnn(-c2nc(SC)nc3sc4c(c23)CCCC4)c1N | i | 1.1
CC1Cc2ccccc2N1C1=CC(=O)CC(C)(C)C1 (configuration not stated) | i | 0.02
CN1CCN(CCNC(=O)Nc2ccccc2C(F)(F)F)CC1 | i | -1.5
CCC(CC)C(=O)c1c[nH]c(C(=O)NN)c1 | i | 0.28
CN1C(=O)/C(=C/c2cc(C(C)(C)C)c(O)c(C(C)(C)C)c2)NC1=S | i | 1
Cc1ccc(N(CCCCN2C(=O)c3ccccc3C2=O)C(=O)c2ccc(Cl)s2)cc1 | i | 0.37
Cc1cccc2cc(CN(C(=S)NCC(C)C)C3CCCC3)c(=O)[nH]c12 | i | 0.18
CCCCNS(=O)(=O)c1ccc2nc(-c3cccnc3)cc(C(=O)NCCCOC)c2c1 | i | 1.2
Clc1ccc(C[n+]2cc(-c3ccccc3)n3c2CCC3)cc1 | i | 1.8
CCOc1cccc(/C=N/NC(=O)c2ccc3c(c2)OCCO3)c1O | i | 0.11
COc1ccc(N2C(=O)C3CCCN3C2c2ccc(Cl)cc2)cc1 (configuration not stated) | i | 1.2
CCC1=NN(C(=O)Cc2ccc([N+](=O)[O-])cc2)C(O)(c2ccc(Br)cc2)C1 (configuration not stated) | i | -0.27
O=C(NCCCN1CCN(c2ccc(F)cc2)CC1)Nc1ccc([N+](=O)[O-])cc1 | i | -1.3
Cc1cccc(Cn2ccc(-c3ccc(Cl)cc3)c(C#N)c2=O)c1 | i | 0.95
COCCn1nnnc1C(c1cc2cc(C)ccc2[nH]c1=O)N1CCCCCC1 (configuration not stated) | i | 2.1
Cc1ccc(SC(=O)c2c(C)noc2-c2cc(C)on2)cc1 | i | 1.1
NS(=O)(=O)c1ccc(CCn2c(=S)[nH]c3ccc(F)cc3c2=O)cc1 | i | -0.02
Cc1ccc[n+](CC(=O)Nc2cccc(Cl)c2)c1 | i | -1.2
CCOC(=O)c1c(NC(=O)C(C)Sc2cn(C)c3ccccc23)sc2c1CCC2 (configuration not stated) | i | -0.02
O=C(O)[C@@H]1CSC2c3ccccc3C(=O)N21 (some centres not stated) | i | 2.4
C=CCOC(=O)COc1ccc2c(C)c(CC)c(=O)oc2c1 | i | 0.95
NC(=O)C1(N2CCCCC2)CCN(C(=S)Nc2ccc(S(N)(=O)=O)cc2)CC1 | i | 0.17
CC(C)(C)c1ccc(C(=O)NCc2nnc(SCC(=O)N3CCCc4ccccc43)n2-c2ccccc2)cc1 | i | -0.71
COc1ccc(C(=O)COC(=O)CCCN=C2NS(=O)(=O)c3ccccc32)c(OC)c1 | i | 2.1
Cc1c(Nc2nc3ccccc3nc2NS(=O)(=O)c2ccccc2)c(=O)n(-c2ccccc2)n1C | i | -0.59
COC(=O)c1cc2occc2n1Cc1nc(-c2ccccc2Cl)oc1C | i | 2.1
CCOc1cc(/C=C2/C(=N)N3C=CSC3=NC2=O)ccc1OCCCOc1ccccc1C | i | -0.01
Cc1ccc(Cl)cc1N1CCN(Cc2cc3c(cc2O)CCC3)CC1 | -6* | -0.04*
CCN(CC)CCNC(=O)C(=O)Nc1cc2c3c(c1)CC(=O)N3CCC2 | i | -0.77
C/C(=N\O)c1ccc2c3c([nH]c2c1)CCCC3 | i | 0.67
COc1ccc(-c2cc(C(=O)OC3CCOC3=O)c3ccccc3n2)cc1 (configuration not stated) | i | 1.5
COc1cccc(C(=O)Nc2cc3c4c(c2)CC(=O)N4CCC3)c1 | i | -1.8

An excerpt of these results, as tab-separated lines:
canonical_smiles	KCNQ2 block	KCNQ2 block baseline
O=C(NCCCN1CCN(c2ccc(F)cc2)CC1)Nc1ccc([N+](=O)[O-])cc1	i	-1.3
Cc1cccc(Cn2ccc(-c3ccc(Cl)cc3)c(C#N)c2=O)c1	i	0.95
COCCn1nnnc1C(c1cc2cc(C)ccc2[nH]c1=O)N1CCCCCC1 (configuration not stated)	i	2.1
Cc1ccc(SC(=O)c2c(C)noc2-c2cc(C)on2)cc1	i	1.1
NS(=O)(=O)c1ccc(CCn2c(=S)[nH]c3ccc(F)cc3c2=O)cc1	i	-0.02
Cc1ccc[n+](CC(=O)Nc2cccc(Cl)c2)c1	i	-1.2
CCOC(=O)c1c(NC(=O)C(C)Sc2cn(C)c3ccccc23)sc2c1CCC2 (configuration not stated)	i	-0.02
O=C(O)[C@@H]1CSC2c3ccccc3C(=O)N21 (some centres not stated)	i	2.4
C=CCOC(=O)COc1ccc2c(C)c(CC)c(=O)oc2c1	i	0.95
NC(=O)C1(N2CCCCC2)CCN(C(=S)Nc2ccc(S(N)(=O)=O)cc2)CC1	i	0.17
CC(C)(C)c1ccc(C(=O)NCc2nnc(SCC(=O)N3CCCc4ccccc43)n2-c2ccccc2)cc1	i	-0.71
COc1ccc(C(=O)COC(=O)CCCN=C2NS(=O)(=O)c3ccccc32)c(OC)c1	i	2.1
Cc1c(Nc2nc3ccccc3nc2NS(=O)(=O)c2ccccc2)c(=O)n(-c2ccccc2)n1C	i	-0.59
COC(=O)c1cc2occc2n1Cc1nc(-c2ccccc2Cl)oc1C	i	2.1
CCOc1cc(/C=C2/C(=N)N3C=CSC3=NC2=O)ccc1OCCCOc1ccccc1C	i	-0.01
Cc1ccc(Cl)cc1N1CCN(Cc2cc3c(cc2O)CCC3)CC1	-6*	-0.04*

(next part)
SMILES | KCNQ2 block | KCNQ2 block baseline
O=C(CSCc1ccc(Cl)cc1Cl)Nc1ccccc1C(=O)Nc1ccc(C(=O)O)cc1 | i | -0.94
COc1ccc(-c2cc(C(=O)NCCCn3ccnc3)c3ccccc3n2)c(OC)c1 | i | 4.8
N#Cc1c(-c2cccc(Br)c2)cc(-c2ccco2)[nH]c1=O | i | -0.1
O=C1COc2ccc(C(=O)CSc3nc4ccccc4c(=O)n3-c3ccc(Cl)c(Cl)c3)cc2N1 | i | 0.2
Cc1ccc(S(=O)(=O)CC(N)=O)cc1 | i | 1
CC(NC(=O)c1ccc(OC2CCN(S(=O)(=O)N(C)C)CC2)cc1)C1CC1 (configuration not stated) | i | -0.99
COC(=O)/C(NC(C)=O)=C(\C)c1ccc(Cl)cc1 | i | -0.86
CCCN1Cc2cccc(C(=O)NC(CC(=O)OCC)c3ccc(C)cc3)c2C1=O (configuration not stated) | i | 1.2
O=C(CN1CCOCC1)Nc1nc2ccc(Cl)cc2s1 | i | -0.43
COc1ccc(CNS(=O)(=O)c2cc(Br)cc3c2N(C(C)=O)C(C)C3)cc1 (configuration not stated) | i | -0.47
COc1ccc(C(=O)CNc2ccccc2CO)cc1 | i | 0.71
